# Screening results deposited in PubChem BioAssay by several laboratories.
# Ecoli rRNA inh: inhibits bacterial ribosomal RNA function over humanized ribosomes | GFP signal change (wild-type ribosome), % (concentration not given with the values) | actives 1.6% (n = 350,000) | E. coli WT GFP vs humanized-ribosome RFP mutants, fluorescence, 24 h; hits give low values; DMSO median 0, no signal -100;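 active = significant combined selectivity score with lowered wild-type GFP, culture density cut under 30%, mutant RFP and density less affected; inactive = any of these conditions unmet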; note: one replicate is shown; some compounds called inactive have numbers as strong as hits
# Beta2AR agonist: human beta-2 adrenergic receptor agonism by FAP; AID 504454; Am2.2-beta2AR cells, FAP receptor internalization, flow cytometry; reference of the scale not given here; response, % (concentration not given with the values); actives 0.43% (n = 340,000);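 active = response above a set limit, near 3 SD of response in nonfluorescent compounds, cut at about 42% in these data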;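 note: stock transfer was 100 nL into about 11 µL; a reference agonist was the positive control; negative values mostly stem from fluorescent compounds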
# Target sequence (P07550 whole entry, looked up): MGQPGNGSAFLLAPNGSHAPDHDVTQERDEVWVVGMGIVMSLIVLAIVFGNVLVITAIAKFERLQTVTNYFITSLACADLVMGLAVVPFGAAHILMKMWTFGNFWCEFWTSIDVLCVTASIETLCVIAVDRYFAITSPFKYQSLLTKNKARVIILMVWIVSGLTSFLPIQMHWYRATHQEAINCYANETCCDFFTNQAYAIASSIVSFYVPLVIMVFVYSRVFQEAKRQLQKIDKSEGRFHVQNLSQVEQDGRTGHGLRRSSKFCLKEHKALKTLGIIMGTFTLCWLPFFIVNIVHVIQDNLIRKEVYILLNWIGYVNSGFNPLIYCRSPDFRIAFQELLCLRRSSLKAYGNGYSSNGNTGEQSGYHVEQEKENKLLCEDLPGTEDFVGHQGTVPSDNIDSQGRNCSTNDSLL
# Ecoli rRNA inh OD600: further read-out of Ecoli rRNA inh, marked with its call; OD600 change, %; measured here: OD600 growth;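 optical density of the mix in the first replicate; 0 = DMSO median and -100 = no signal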
# Ecoli rRNA inh RFP: recorded beside Ecoli rRNA inh, whose call it bears; RFP signal change, %; measured here: RFP humanized mutant strains;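 first replicate; 0 = DMSO median and -100 = no signal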
# An asterisk follows results filed as active; & = joins results of further samples. This is a subset; rates above refer to the full screens.
canonical_smiles	Ecoli rRNA inh	Ecoli rRNA inh OD600	Ecoli rRNA inh RFP	Beta2AR agonist
O=C1NC(=O)N2CCSC2(Cc2ccccc2)N1 (stereo unspecified)	-4.8	18.3	0.1	1.7
Cc1ccc(C(=O)NC(Cc2ccc(C(C)(C)C)cc2)C(=O)O)cc1 (stereo unspecified)	-0.2	-0.5	0.9	0.8
COC(=O)[C@@]1(C)[C@H]2C(=O)N(Cc3ccccc3)C(=O)[C@H]2[C@H]2CN(C)C(=NC3CCCCC3)N21	8.2	6.1	-0.5	-6.0
COc1cc(-c2nnc(-c3cc(-c4ccccc4)nc4ccccc34)o2)cc(OC)c1OC	1.5	0.7	6.9	-4.5
CC(Sc1nc2ccccc2c(=O)n1CC1CCCO1)C(=O)N(C)c1ccccc1 (stereo unspecified)	-7.8	-20.6	1.1	13.3
COc1ccc(S(=O)(=O)NCc2nc3nc(C)cc(C)n3n2)cc1	4.6	10.1	-2.2	4.3
NC(=O)c1ncn([C@@H]2O[C@H](CNC(=O)[C@@H](N)Cc3cccnc3)[C@@H](O)[C@H]2O)n1	21.1	16.6	5.5	-6.4
Cc1ccc(S(=O)(=O)N(C)c2ccc(OC(=O)CN3C(=O)NC(C)(c4ccccc4)C3=O)cc2)cc1C (stereo unspecified)	0.7	-2.0	2.7	5.0
O=C(NCCCN1CCCC1=O)c1cc(S(=O)(=O)N2CCOCC2)c(Cl)cc1Cl	1.7	0.7	1.2	-3.0
COC(=O)[C@]1(Cc2ccccc2)N[C@H](CN(C)C(=O)c2ccc(C)cc2)[C@@H]2C(=O)N(C)C(=O)[C@@H]21	2.8	8.8	3.0	-2.8
CN(C)C(=O)CCc1ccc2c3c([nH]c2c1)[C@]1(C)[C@@H](C(=O)N2CCCCC2)C[C@H](CC(=O)NCCN2CCOCC2)C(=O)N1CC3	13.8	7.1	-2.4	-6.7
CC(=O)Nc1cccc(C(=O)NNC(=O)c2ccccc2-n2cccc2)c1	3.1	3.0	-4.2	-0.7
COc1ccccc1NS(=O)(=O)c1cccc(C(=O)N/N=C(\C)c2ccncc2)c1	1.0	-4.6	-3.5	5.0
CC(=O)Nc1ccc(NC(=O)c2ccc(Cl)c(S(=O)(=O)N3CCc4ccccc43)c2)cc1	-0.6	3.9	0.1	1.7
O=C(NNC(=O)c1cccc2ccccc12)c1cccc(F)c1	3.5	4.0	-2.6	10.0
C/C(=N\OCC(=O)OC(C)C(=O)Nc1ccc(C)c(S(=O)(=O)N2CCOCC2)c1)c1ccc2c(c1)OCO2 (stereo unspecified)	1.9	4.8	4.5	3.5
Cc1ccccc1OCCC(=O)Nc1cc(S(=O)(=O)N2CCCCC2)ccc1N1CCN(C)CC1	-6.1	0.6	12.1	25.7
Cn1cc(C(=O)NCCc2ccccc2)c(=O)c2cc(S(=O)(=O)N3CCOCC3)ccc21	5.5	3.3	-10.3	-6.3
CN(c1ccccc1)S(=O)(=O)c1ccc(C(=O)NNC(=O)c2ccccc2F)cc1	-2.3	-6.7	0.4	1.1
c1ccc(OCCOCCOc2ccccc2)cc1	-6.0	-5.1	-3.6	-7.5
CC(C)CC(=O)Nc1ccc(C(=O)COC(=O)CN2C(=O)NC3(CCCCC3C)C2=O)cc1 (stereo unspecified)	2.0	13.2	-0.6	-10.7
Cc1c(C(=O)N2CCN(S(=O)(=O)c3ccccc3)CC2)oc2ccccc12	-10.3	-21.4	-4.0	12.2
COc1cc(/C=C/C(=O)OCC(=O)N2CCN(S(=O)(=O)c3ccc(C)cc3C)CC2)cc(Cl)c1OC	-0.9	0.3	-0.3	3.9
O=[N+]([O-])c1ccc(-c2cc(-c3ccncc3)nc3ccc4ccccc4c23)cc1	16.4	12.2	1.3	-9.8
Cc1cc(C)cc(NC(=S)Nc2cccc3cnccc23)c1	-33.2	-56.6	-2.1	2.7
CCSC1OC(C(COC(C)=O)OC(C)=O)C(OC(C)=O)C1NC(C)=S (stereo unspecified)	6.0	6.6	-1.4	-1.9
Cc1cc(=O)oc2c(C)cc(C(C)(C)C)cc12	8.5	8.0	1.1	-7.9
CCOc1ccc(CCN2C(=O)C(=O)N([C@@H](Cc3ccc(O)cc3)CN3CCC[C@@H]3CN3C(=O)C(=O)NC[C@@H]3Cc3ccccc3)C[C@@H]2Cc2ccccc2)cc1	3.8	4.3	6.7	-0.1
CCCn1c(SCC(=O)Nc2ccc3c(c2)OCCO3)n[nH]c1=O	1.8	3.5	-3.3	0.8
COc1cc2c(cc1OC)CN(C(=O)c1ccc(OC)c(S(=O)(=O)N3CCCC3)c1)CC2	4.2	-2.5	1.3	0.9
Cc1ccc(C(c2ccc(C)c(C)c2)C(O)C2OC(=O)C(O)C2O)cc1C (stereo unspecified)	1.5	8.2	-0.9	-3.2
COc1ccc(NC(=O)N(C)C[C@H]2Oc3ccc(NC(=O)Cc4ccccc4)cc3C(=O)N([C@H](C)CO)C[C@@H]2C)cc1	5.4&-0.7	7.2&4.0	6.5&0.4	-1.3
COc1cc(C(=O)NC2CCN(C)CC2)ccc1Nc1ncc2c(n1)N(C1CCCCC1)CCC(=O)N2C	-20.2	-9.4	9.5	-11.3
CC(=O)c1ccc(S(=O)(=O)Nc2c(C)nn(C)c2C)cc1	5.1	9.1	0.8	-8.1
C[C@H](N)C(=O)NC[C@H]1O[C@@H](n2cnc3c(N)ncnc32)[C@H](O)[C@@H]1O	3.2	16.9	-2.0	-3.3
Cc1ccc(C([O-])=C(C(=S)NCc2ccccc2)[n+]2cccc(CO)c2)cc1[N+](=O)[O-]	2.2	6.6	7.5	11.5
CCOc1cc(/C=N/NC(=O)c2ccc(-c3csc(Nc4ccc(C)cc4)n3)cc2)ccc1OCC(=O)O	-29.9	-28.5	-14.8	-0.9
CC(C)(C)OC(=O)N(CCc1ccccc1)Cc1ccc(OCc2cccc(NC(=O)C3CCC3)c2)cc1	16.2	19.5	3.6	0.7
COc1ccc2c(c1)CN(C)S(=O)(=O)c1ccccc1-2	14.1	6.9	2.3	2.4
CCC(C)Cn1cnc2c(SCc3ccccn3)nc(N)nc21 (stereo unspecified)	-2.4	-11.3	-0.8	-5.8
CCC(C)(C)C1CCC2(CC1)NC(=O)N(CC(=O)N(C)CCOc1ccc(Cl)cc1)C2=O (stereo unspecified)	12.7	10.8	-0.6	4.8
O=C1CCCCCN1C(=O)c1ccccc1	15.4	11.3	2.8	-7.9
O=C1C=CC(=O)N1Cc1ccccn1	14.0	10.1	10.8	-12.8
CCCCN(c1ccccc1)S(=O)(=O)c1cccc(C(=O)Nc2c(C)n(C)n(-c3ccccc3)c2=O)c1	-6.5	-40.5	-1.4	-3.4
O=C1NC2(c3ccccc3)NC(=O)NC2(c2ccccc2)N1 (stereo unspecified)	11.9	16.4	1.2	-1.0
Cc1ccc(C(=O)N2CCc3ccccc32)cc1C	1.7	-1.0	-0.7	-2.1
CN(CC(=O)Nc1cccc(F)c1)CC(=O)NC(c1ccccc1)c1ccccc1	-10.4	-5.1	-1.1	1.4
Cc1cc(F)ccc1S(=O)(=O)Nc1ccccc1C(=O)NC1CCN(Cc2ccccc2)CC1	1.1	-13.6	0.5	-3.4
CC(=O)Nc1c(C)ccc([N+](=O)[O-])c1C	7.6	16.2	0.3	-2.4
COc1ccc(S(=O)(=O)N(C)C[C@H]2Oc3ccc(NS(=O)(=O)c4cccs4)cc3C(=O)N([C@H](C)CO)C[C@@H]2C)cc1	-0.9&-9.3	-1.7&-10.3	-0.4&3.0	-4.5
Cc1ccc(C)c(NC(=O)[C@@H]2CCCN2S(=O)(=O)c2ccccc2F)c1	2.8	0.7	2.2	-5.6
C[C@H](CO)N1C[C@H](C)[C@@H](CN(C)C(=O)Nc2ccc3c(c2)OCO3)Oc2c(NC(=O)Cc3ccccc3)cccc2C1=O	3.5	5.7	-0.2	-8.8
CN(c1ccccc1)S(=O)(=O)c1ccc(C(=O)NCc2ccccc2CN2CCCC2)cc1	1.7	1.4	1.1	-3.2
c1ccc(C2OCCN2c2ccccc2)cc1 (stereo unspecified)	8.3	10.4	-0.6	-0.3
COc1ccc(NC(=S)N2CCC(C(=O)c3ccc(Cl)cc3)CC2)cc1	4.4	8.4	0.4	1.1
CC1(C)NC(=S)NC1=S	21.6	10.8	3.7	-3.2
CCOc1ccc(CCN2C(=S)N([C@@H](CC(C)C)CN3CCCC3CN3C(=S)NC[C@@H]3Cc3ccc(O)cc3)C[C@@H]2Cc2ccccc2)cc1 (stereo partly specified)	4.0	16.1	14.2	10.0
O=S(=O)(Nc1ccc(Br)cc1)c1cccc(NS(=O)(=O)c2cccs2)c1	-61.4	-81.5	-20.4	-1.1
CC1=Nc2cccc([N+](=O)[O-])c2NC(=O)C1	8.2	10.0	2.5	10.4
C=C(C1=CCN(S(=O)C(C)(C)C)[C@@H]1CCO)c1ccccc1 (stereo partly specified)	-4.7	3.9	-2.2	-4.4

# Next part
# Each structure is followed by: Ecoli rRNA inh, Ecoli rRNA inh OD600, Ecoli rRNA inh RFP, Beta2AR agonist
- CCOC(=O)CCc1ccc(NC(=O)/C=C/c2ccc([N+](=O)[O-])o2)cc1
  -48.3, -74.9, -14.0, -16.2
- S=c1[nH]nc2ccccn12
  16.2, 23.9, 0.7, 8.6
- COc1cc(O)c(C(=O)O)c(CCc2ccccc2)c1
  -8.9, -23.4, -2.3, 6.8
- Cc1ccc(S(=O)(=O)N2CCN(C(=O)COC(=O)Cc3ccc(F)cc3)CC2)c(C)c1
  -1.5, -6.6, 0.9, -2.6
- CCOc1ncccc1C(=O)OC(C)C(=O)NC1CCCCC1 (stereo unspecified)
  3.5, 6.9, -1.1, 3.0
- CC[C@@H](C)[C@@H]1CN([C@@H](CN2CCC[C@H]2CN2C(N)=NC[C@H]2CC(C)C)C(C)C)C(=N)N1CCCC1CCCC1
  -52.2, -81.1, -17.3, 7.9
- COc1cc2cc(c1Cl)N(C)C(=O)CC(OC(=O)C(C)N(C)C(C)=O)C1(C)OC1C(C)C1CC(O)(NC(=O)O1)C(OC)C=CC=C(C)C2 (stereo unspecified)
  16.0, 19.4, -0.6, 8.5
- Cc1nc(-c2ccc(F)cc2)c(CC(=O)N(C)CC(=O)Nc2c(C)cccc2C)s1
  6.1, 4.9, -1.0, 3.5
- C=CCn1c(C)nnc1SCC(=O)Nc1ccccc1C(=O)NC1CC1
  9.3, 4.2, 5.9, 5.8
- O=C1O[C@H](CO)[C@@H](O)[C@H](O)[C@H]1O
  10.2, 6.4, 5.3, 3.1
- Cc1cc(C)cc(-c2nnc(SCC(=O)c3c(N)n(C4CC4)c(=O)[nH]c3=O)o2)c1
  -0.5, -3.3, -2.3, 5.6
- Cc1ccc(OCC(=O)Nc2c(C)nn(-c3ccccc3)c2C)c(Br)c1
  -10.1, -8.1, 1.4, -4.8
- O=C(Cc1n[nH]c(=O)c2ccccc12)Nc1cc(C(F)(F)F)ccc1-n1cncn1
  5.0, 8.0, -1.2, -2.2
- Cc1ccc(NC(=O)c2ncn(CCCN3CCN(c4ccccn4)CC3)n2)cc1C
  -22.2*, -6.2*, 9.4*, -11.0
- COc1ccc(S(=O)(=O)N2CCN(C(=O)c3ccccn3)CC2)cc1
  1.5, 3.5, -2.4, 4.6
- COc1ccc(CNC(=O)C[C@H]2C[C@H](C(=O)N(C(C)C)C(C)C)[C@@]3(C)c4[nH]c5ccc(Cl)cc5c4CCN3C2=O)cc1OC
  12.3, 1.8, 4.7, 2.7
- CCOC(Cn1cc([N+](=O)[O-])c(=O)[nH]c1=O)OCC
  13.2, 17.0, 0.9, 0.4
- S=C(NCc1ccccn1)NN=Cc1ccccn1
  -19.1*, 5.8*, -1.1*, -0.7
- COc1ccc(S(=O)(=O)N2CCCCCC2)cc1NC(=O)CCc1cc(OC)c(OC)c(OC)c1
  -3.3, -11.5, 8.9, -0.8
- COc1ccc(CN(C)C(=O)CCl)cc1
  5.4, 14.8, 1.9, -1.4
- CCn1cc(C2C3=C(CC(C)(C)CC3=O)N(c3ccc(C)cc3)C3=C2C(=O)CC(C)(C)C3)c(C)n1
  10.1, -2.7, -0.5, -1.9

# Compound profiles, as listed above. Screens in order: Ecoli rRNA inh | Ecoli rRNA inh OD600 | Ecoli rRNA inh RFP | Beta2AR agonist
# CCOC(Cn1cc([N+](=O)[O-])c(=O)[nH]c1=O)OCC as listed: 13.2 | 17.0 | 0.9 | 0.4
# Cc1ccc(NC(=O)c2ncn(CCCN3CCN(c4ccccn4)CC3)n2)cc1C as listed: -22.2* | -6.2* | 9.4* | -11.0
# O=C(Cc1n[nH]c(=O)c2ccccc12)Nc1cc(C(F)(F)F)ccc1-n1cncn1 as listed: 5.0 | 8.0 | -1.2 | -2.2
# CC[C@@H](C)[C@@H]1CN([C@@H](CN2CCC[C@H]2CN2C(N)=NC[C@H]2CC(C)C)C(C)C)C(=N)N1CCCC1CCCC1 as listed: -52.2 | -81.1 | -17.3 | 7.9
# COc1ccc(CNC(=O)C[C@H]2C[C@H](C(=O)N(C(C)C)C(C)C)[C@@]3(C)c4[nH]c5ccc(Cl)cc5c4CCN3C2=O)cc1OC as listed: 12.3 | 1.8 | 4.7 | 2.7
